Screens (PubChem BioAssay)
Autofluor counter – flagged as autofluorescent in microsphere protease counterscreen; compound autofluorescence counterscreen, microsphere flow cytometry; active compounds read high; 360,000 tested, 3.1% active; fluorescence intensity (no concentration beside the values);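 active = at least 3 SD above the mean of all compounds, about 16000 in these data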;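 also: 100 nL of 1 mM stock went into each well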
Active calls of the source: *.

mol	Autofluor counter
CC1(C(=O)NCC2CC2)CCN1C(=O)C/C=C/c1ccccc1 (stereo unspecified)	2814
Cc1nnc(NC(=O)CCC2CCCCC2)s1	3804
Cc1ccc(OCCN2CCC2(C)C(=O)Nc2ccc3c(c2)OCCO3)cc1 (stereo unspecified)	3876
COc1ccc(-c2ccc(C(=O)Nc3ccc(C(C)C)cc3)c3occc23)c(C)c1	2834
CCCCNc1c(CC(C)C)nc2nc(C)cc(C)n12	7388
COc1cc(OC)cc(OC)c1	4028
O=C(Cn1sc2ccccc2c1=O)Nc1ccccc1	4214
CCNC(=O)Nc1ccc2c(c1)c(=O)n(C)n2CC=C(C)C	3752
COc1ccc(S(=O)(=O)NCc2ccc(C(=O)NCCN(C)Cc3ccccc3)cc2)cc1	3615
CC(=O)C1=CCC(c2cccc(Cl)c2)N(S(=O)(=O)c2ccc(C)cc2)C1 (stereo unspecified)	5560
CCN(CC)C(=O)C1=C(C)N(Cc2ccccc2)C(=O)C(CC(=O)NC2CCCC2)C1 (stereo unspecified)	3813
c1cnc(NCCSSCCNc2ncccn2)nc1	2922
Clc1ccc2nc(C3CCCCC3)c(Cc3ccccc3)n2c1	4857
COc1ccc(S(=O)(=O)N2CCC(C(=O)N[C@@H](C)C(=O)NCc3ccco3)CC2)cc1	3736
COCCNC(=O)C1CCCN(Cc2cccc(C(F)(F)F)c2)CC1 (stereo unspecified)	3513
O=C(NCc1ccccc1)c1cc(C2CCCN(S(=O)(=O)c3ccccc3)C2)on1 (stereo unspecified)	3881
CCOc1cc(OCC)cc(C(=O)N2CCC[C@H]2C(=O)N2CCC[C@H]2C(=O)NCc2ccc(F)cc2F)c1	5763
C[C@@H]1CN([C@H](C)CO)C(=O)CCCn2nncc2CO[C@@H]1CN(C)S(C)(=O)=O	2880
Cc1noc(C)c1NC(=O)N(C)C[C@H]1OCc2cnnn2CCCC(=O)N([C@@H](C)CO)C[C@H]1C	3168
COCCNC(=O)C1CCCN(C(=O)c2ccc3ccccc3n2)CC1 (stereo unspecified)	4020
Cc1nc2c(OCc3ccc(C#N)cc3)cccn2c1N(C)C(=O)CCC1CCCC1	4042
Cc1nc(C(F)(F)F)ccc1C(=O)N1CCC1(C)C(=O)NS(=O)(=O)c1ccccc1Cl (stereo unspecified)	2885
CN(C)c1ccc(CNC(=O)CC[C@H]2O[C@@H](n3cnc4c(NC(=O)c5ccccc5)ncnc43)[C@H](O)[C@@H]2O)cc1	6263
CCN(CC)C(=O)C1=C(C)N(Cc2ccccc2)C(=O)C(CC(=O)NCCc2ccccn2)C1 (stereo unspecified)	3715
Cc1ccc(NC(=O)C2c3ccccc3-c3ccccc32)cc1	4308
CCCCCCn1cc(CN(C)C2CN(Cc3cn(CCCCCC)nn3)S(=O)(=O)C2)nn1 (stereo unspecified)	5511
O=C(C1=NOC2(C1)C(=O)N(Cc1ccccc1)c1ccccc12)N1CCOCC1 (stereo unspecified)	5544
C[C@@H]1CN([C@@H](C)CO)S(=O)(=O)c2ccc(Br)cc2O[C@H]1CN(C)Cc1ccccn1	3828
CCOC(=O)Cc1c(-c2cccc(Cl)c2)nc2c3ccccc3ccn12	6556
CCc1nc2ccc(C(=O)NCc3ccc4c(c3)OCO4)cn2c1N(CCC(C)C)CCN(C)C	3057
COc1ccc(-c2ccc(CCC(=O)O)n2-c2cc(OC)ccc2OC)cc1	3750
CCCCNC(=O)C1c2ccccc2OCC(=O)N1Cc1cccnc1 (stereo unspecified)	5274
CCOC(=O)[C@]12CCC=C1N(Cc1ccc(Cl)cc1Cl)C(=O)[C@H](CC(=O)NCCC(C)C)C2	5824
CC(=O)c1cccc(-c2ccnc3c2CC(C(=O)Nc2ccc4c(c2)OCO4)O3)c1 (stereo unspecified)	3826
CC1(C(=O)Nc2cccc3ccccc23)CCN1C(=O)Cc1ccc(Cl)cc1Cl (stereo unspecified)	3053
O=C(Nc1ccccc1Cl)c1cc(C2CCCN(C(=O)C3CCCCC3)C2)on1 (stereo unspecified)	3507
CCc1nc2ccc(C(=O)NCCCN3CCCC3=O)cn2c1N(C)C(=O)Nc1ccccc1OC	3858
COCCN(C(=S)Nc1ccc(OC)c(Cl)c1)C1CCN(C(C)=O)CC1	2908
CC1(C(=O)Nc2ccc(Cl)c(C(F)(F)F)c2)Cc2c(-c3ccc(C(N)=O)cc3)ccnc2O1 (stereo unspecified)	3747
C/C=C1\NC(=O)[C@H](C)NC(=O)[C@@H](NC(=O)[C@@H](Cc2ccc(O)cc2)NC(=O)[C@@H](NC(=O)/C(C)=C/C)C(C)C)[C@@H](C)OC(=O)[C@H](CCCCc2ccc(O)cc2)NC(=O)[C@@H](CCC(=O)OC)NC1=O	4932

In the list so far, 4 have fluorine.
mol	Autofluor counter
COCCNC(=O)C1CCCN(Cc2cccc(C(F)(F)F)c2)CC1 (stereo unspecified)	3513
CCOc1cc(OCC)cc(C(=O)N2CCC[C@H]2C(=O)N2CCC[C@H]2C(=O)NCc2ccc(F)cc2F)c1	5763
Cc1nc(C(F)(F)F)ccc1C(=O)N1CCC1(C)C(=O)NS(=O)(=O)c1ccccc1Cl (stereo unspecified)	2885
CC1(C(=O)Nc2ccc(Cl)c(C(F)(F)F)c2)Cc2c(-c3ccc(C(N)=O)cc3)ccnc2O1 (stereo unspecified)	3747

The list continues:
mol	Autofluor counter
CS(=O)(=O)c1ccc(C(=O)OCC(=O)N2CCN(CCC3CCCCC3)CC2)cc1[N+](=O)[O-]	3903
NC(CO)c1csc(Nc2ccc(C(F)(F)F)cn2)n1 (stereo unspecified)	3640
COc1ccc2c(c1)CO[C@]21O[C@H](CCO)C[C@H](O)[C@H]1O	6026
CCc1nc2c(OCc3ccc(C(F)(F)F)cc3)cccn2c1N(C)C(=O)c1ccco1	4059
CC1CCN(S(=O)(=O)c2cccc(C(=O)NC3CCS(=O)(=O)C3)c2)CC1 (stereo unspecified)	3801
CC1(C(=O)NC2CCCC2)CCN1C(=O)Cc1ccc(-c2ccccc2)cc1 (stereo unspecified)	3809
CC(C)(C)C1CCNC(=O)CC1 (stereo unspecified)	3594
COc1ccc(NC(=S)N2CCN(c3ccc4c(c3)C3CCN(C(=O)OCc5ccccc5)C4C3)CC2)c(OC)c1 (stereo unspecified)	4185
CC1(C(=O)NS(=O)(=O)c2ccc(Cl)cc2)CCN1C(=O)CCC1CCCC1 (stereo unspecified)	3603
CC1(C(=O)Nc2cccc3c2CCCC3)CCN1C(=O)c1cccc(F)c1 (stereo unspecified)	3611
O=C1C=C(C#Cc2ccccc2)C[C@@H](c2ccc(F)cc2)C1	3695
CN(C)c1ccc2nc3ccc(=O)cc-3sc2c1	2898
CN(C)CCNC(=O)c1cccc(-c2cnc3c(NC=O)cc(-c4cccc(C(F)(F)F)c4)cn23)c1	3705
Cc1cnc(CN(C)C(=O)C2CCC(=O)N(CCc3ccc(Cl)cc3)C2)[nH]1 (stereo unspecified)	3925
O=C(Nc1cccnc1)C1Cc2c(-c3ccco3)ccnc2O1 (stereo unspecified)	3945
COC(=O)c1cccc(NC(=O)c2cccc(-n3cnnn3)c2)c1	2754
COc1ccc(NC(=O)c2ccc(NC(=O)CN3CCN(c4ccccc4O)CC3)cc2)cc1	3420
CCc1c(O)nc(SCC(=O)Nc2ccccc2)n(-c2ccccc2C)c1=O	2984
COc1cccc(C(C)(O)c2nc(-c3ccc(F)cc3OC)cs2)c1 (stereo unspecified)	2959
CCOC(=O)N1CCN(C(=O)C[C@@H]2C[C@@]3(C(=O)OCC)CCC=C3N(Cc3cccc4ccccc34)C2=O)CC1	5861

Gathered by group: those above with two or more sulfur atoms (two)
mol	Autofluor counter
c1cnc(NCCSSCCNc2ncccn2)nc1	2922
CC1CCN(S(=O)(=O)c2cccc(C(=O)NC3CCS(=O)(=O)C3)c2)CC1 (stereo unspecified)	3801

Next compounds.
mol	Autofluor counter
O=C(NCc1cccs1)c1ccc(Cl)c(S(=O)(=O)N2CCOCC2)c1	3493
C[C@H](O)[C@@H]1C(=O)N2CCc3c([nH]c4ccccc34)[C@@H]2C[C@@H]1N(C)S(=O)(=O)c1ccccc1	4023
Cc1ccc(C(O)c2ncc(-c3ccc(F)cc3)[nH]2)cc1F (stereo unspecified)	3581
CC(=O)NCCNC(=O)C1Cc2c(-c3ccc4c(c3)OCO4)ccnc2O1 (stereo unspecified)	3672
CCc1nc2ccc(C(=O)NCCN3CCOCC3)cn2c1N(CC)CCOC	3588
CC(C)NC(=O)C1(C)CCN1C(=O)c1cccc(Cl)c1 (stereo unspecified)	3536
C1=C\CCC2(OCCO2)C2(CC/1)OCCO2	3307
CC1(C(=O)NS(=O)(=O)c2cccc(Cl)c2)CCN1C(=O)COc1ccc(Cl)cc1 (stereo unspecified)	3884
CNC[C@H]1OCCCC[C@H](C)Oc2ccc(NC(=O)CCCN(C)C)cc2C(=O)N([C@H](C)CO)C[C@@H]1C	3194
COc1ccc(-c2ccc(C(=O)Nc3cccc(NS(C)(=O)=O)c3)c3occc23)c(C)c1	3981
COc1ccc(-c2cc(C(=O)N(C)CC(=O)Nc3cccc(F)c3)c3ccccc3n2)cc1OC	3610
CN(Cc1cn(Cc2ccc(Cl)cc2)nn1)C1CN(Cc2cn(Cc3ccc(Cl)cc3)nn2)S(=O)(=O)C1 (stereo unspecified)	5981
Cc1ccc(OC(=O)N(C)C[C@@H]2OCc3cnnn3CCCC(=O)N([C@@H](C)CO)C[C@@H]2C)cc1	3569
OC[C@@H]1CN(Cc2ccc(-c3ccccc3)cc2)C[C@H](n2cnc3c(N4CCCC4)ncnc32)O1	3751
CCCCOc1ccc(S(=O)(=O)NC(=O)C2(C)CCN2C(=O)Cc2cccs2)cc1 (stereo unspecified)	2968
COC(=O)C1=C(C)NC(C)=C(C(=O)OC)C1C(=O)OCC(=O)NC1CCCCC1C (stereo unspecified)	3567
O=C(CSc1nc2ccc(F)cc2c(=O)n1-c1ccccc1)Nc1ccc2c(c1)CCC2	3220
O=C(NCc1ccc(F)c(F)c1)c1ccc(-c2ccc(F)c(F)c2)c2ccoc12	3869
CC1=C(C(=O)N(C(C)C)C(C)C)CC(CC(=O)NC2CCCC2)C(=O)N1Cc1ccc(F)cc1 (stereo unspecified)	4370
O=C(Nc1ccccc1)C1Cc2c(-c3ccco3)ccnc2O1 (stereo unspecified)	2803
COc1ccccc1C(=O)NC1CC2CCCC(C1)N2Cc1ccccc1 (stereo unspecified)	3831
CCc1nc2c(OCc3ccc(Cl)cc3Cl)cccn2c1N(C)C(C)=O	3934
COC(=O)c1ccc(CNc2ccc(C(C)=O)cc2)cc1	5226
CCc1nc2c(OCc3cc(Cl)cc(Cl)c3)cccn2c1N(C=O)Cc1ccc(OC)cc1	3620
CC(N)c1csc(Nc2ccc(C(=O)c3ccccc3)cc2)n1 (stereo unspecified)	3720
CCCCCCCCN1C(=O)[C@H](CC(=O)NCc2cccc(C(F)(F)F)c2)C[C@@]2(C(=O)OCC)CCCC=C12	5755
COC(=O)C[C@@H]1C[C@H]2c3cc(NS(=O)(=O)c4ccccc4)ccc3O[C@H]2[C@@H](CO)O1	3543
CC(=O)NC(c1ccc(F)c(F)c1)c1nc(-c2cccs2)cs1 (stereo unspecified)	2871
COc1cc(-c2ccc(N3C(c4ccsc4)=Cc4ccccc4C3CC(C)=O)cc2)cc(OC)c1OC (stereo unspecified)	5138
C[C@H]1CCCCO[C@@H](CN(C)S(=O)(=O)c2ccc(F)cc2)[C@@H](C)CN([C@@H](C)CO)C(=O)c2cc(NC(=O)Nc3ccc4c(c3)OCO4)ccc2O1	3010
Cc1cccc(CNC(=O)Nc2nnc([C@H]3C[C@H](O)[C@@H](CO)O3)s2)c1	3929
Cc1noc(C)c1NC(=O)Nc1ccc2c(c1)C(=O)N([C@H](C)CO)C[C@H](C)[C@H](CN(C)C(=O)NC1CCCCC1)OCCCC[C@@H](C)O2	3683
CC(C)(C)c1ccc(CC(=O)N2CCC2(C)C(=O)Nc2cccc3ccccc23)cc1 (stereo unspecified)	3598
C=C1C(=O)N(C)CCC1C(CC)C(=O)OC (stereo unspecified)	3849
NC(=O)c1ccsc1NC(=O)COC(=O)Cc1ccc(F)cc1	3019
O=C(COc1ccc(F)cc1)Nc1nc(-c2cccnc2)cs1	2839
Cc1c(CC(=O)N2CCC(O)CC2)c(=O)oc2cc3c(cc12)CCC1(CCCCC1)O3	3171
COc1ccc(-c2cc(NC=O)c3ncc(-c4cc(OC)c(OC)c(OC)c4)n3c2)c(OC)c1	3920
C[C@@H]1CN([C@H](C)CO)C(=O)CCCn2nncc2CO[C@@H]1CN(C)S(=O)(=O)c1ccccc1F	2929
COc1cccc(NC(=O)c2cnc(NS(=O)(=O)c3ccccc3)nc2)c1	3799

Structural class, those above with an aryl thioether with sulfur outside any ring
mol	Autofluor counter
CCc1c(O)nc(SCC(=O)Nc2ccccc2)n(-c2ccccc2C)c1=O	2984
O=C(CSc1nc2ccc(F)cc2c(=O)n1-c1ccccc1)Nc1ccc2c(c1)CCC2	3220

(more compounds)
mol	Autofluor counter
CC(C)c1cccc(-c2csc(C(O)c3ccco3)n2)c1 (stereo unspecified)	3064
Nc1ncnc2nn(C3OC(CO)C(O)C3O)nc12 (stereo unspecified)	3627
C=Cc1ccc(Cn2c(C)c(C(=O)NCc3cccc(C)c3)sc2=O)cc1	4135
O=c1ccn2c(n1)SC(c1ccccc1)C2 (stereo unspecified)	3857
COC(=O)[C@@]1(Sc2ccc(C)cc2)CC(=O)N(P(=O)(OC)OC)[C@@H]1c1ccccc1	5186
COc1ccc(-c2cc(C(=O)N3CCCCCC3)c3ccccc3n2)cc1OC	3561
CC1(C(=O)O)CCCN(C(=O)c2ccc(OC(F)F)cc2)C1 (stereo unspecified)	2880
CCS(=O)(=O)c1nc(S(=O)(=O)c2ccc(C)cc2)c(N2CCCCCC2)s1	3929
O=C(N/N=C/c1c(O)ccc2ccccc12)C(=O)N1CCCC1	3851

These rows are one share of the data, so the mix of outcomes need not match the whole.
